# PINK1 expr mod – PINK1 expression modulation. PINK1 immunofluorescence, high-content cytometry, 24 h. Potency, µM (series often up to 76.6 µM), for the others: at the highest dose activation (PINK1 increase), hits mostly activators. 0.2% of 410,000 active. AID 624263; active = well fitted activation curve with a large enough effect; inconclusive = small, poorly fitted or top-dose-only effect; inactive = flat fitted curve, though single readings scatter; cell line not stated here;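 also: potency is read from the fitted curve at half-maximal effect; % of control where 0% means no effect; nearly all actives have a fitted effect of over 65% in size; a mitochondrial uncoupler was the plate control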
#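 Cells are seeded, rested 12 hours, then given compound at five concentrations or DMSO for 24 hours. After fixation, blocking and antibody staining, PINK1 amount and mitochondrial localization are scored; CCCP serves as control.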
# CtBP-E1A blk – blocks the CtBP interaction with E1A; AlphaScreen GST-E1A/His-CtBP binding, 1536-well; hits give low values; control for the full effect not named in the record; activity change, % (no concentration beside the values); 0.49% of 340,000 active; in the data active means activity change below about -65%; inconclusive means about -30% to -65%; inactive means above about -30%; also: % is scaled to controls: 0 for no effect and ±100 for the full control effect; compound concentration not given in the record
#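 GST-E1A and His-tagged CtBP (125 nM each as 5X stock) were preincubated with pin-transferred compound for 2 h at 37 °C in the dark, then glutathione donor and nickel acceptor beads were added for 1 h before AlphaScreen reading.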
# D2 agonist – human D2 receptor agonism in beta-arrestin assay; P14416; DiscoveRx PathHunter D2 beta-arrestin, luminescence, 90 min; 100% = 57 uM dopamine signal; activation, % (test concentration not listed); 0.084% of 360,000 active; AID 624465; in the data active = activation above about 40%; inconclusive = about 15% to 40%; inactive = below about 15%; also: compound concentration not given in the record; the text of the record calls up to 30% inactive
#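 Agonist mode: compounds alone added to overnight-plated D2 PathHunter cells for 90 min at 37 C, with 57 uM final dopamine (EC100) defining full response. Beta-arrestin recruitment detected by chemiluminescent reagent, read after 1 h at ambient temperature.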
# TRPML1 agonist – human mucolipin-1 channel agonism; TRPML1-expressing cells, Ca2+ dye fluorescence, FDSS; host cell line not named in the record; reference of the full effect not given here; activation, % (test concentration not listed); 0.12% of 410,000 active; Q9GZU1; AID 624414; in the data active = activation above about 50%; inconclusive = about 30% to 50%; inactive = below about 30%; also: 0% is about no effect; the text of the record puts the active cut at 80%
#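 Agonist activity was taken from a 110 s kinetic Ca2+ dye read on the FDSS after pinning compounds onto TRPML1-DL cells. The cells were seeded at 1,500/well with Tet inducer, incubated about 16 h, then dye-loaded at room temperature.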
# TRPML1 blocker – inhibitors of human TRPML1 channel; Q9GZU1; TRPML1-inducible cells, Ca2+ dye fluorescence, FDSS; hits give low values; inhibition of EC80 agonist-evoked calcium signal; activity change, negative = inhibition, % (test concentration not listed); 0.02% of 390,000 active; in the data active means activity change below about -50%; inconclusive means about -30% to -50%; inactive means above about -30%;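 also: stimulus is agonist 54-4 at its EC80 concentration; % is scaled to controls: 0 for no effect and ±100 for the full control effect; compound concentration not given in the record; the text of the record puts the active cut at -80%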
#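 TRPML1-DL cells, Tet-induced overnight (~16 h, 37 °C) at 1,500 cells/well, were loaded with Ca8 no-wash dye plus quencher for 45-90 min at room temperature. Compounds were pinned during FDSS kinetic reading; agonist 54-4 at EC80 (4 uM final) then added.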
# Six1-Eya2 blk – Six1/Eya2 interaction inhibition. Q15475+O00167. activity change, % (concentration not given with the values). AID 651725. 0.56% of 360,000 active. AlphaScreen GST-Six1/His-Eya2 binding, biochemical; hits give low values; control for the full effect not named in the record; in the data active = activity change below about -65%; inconclusive = about -30% to -65%; inactive = above about -30%; also: % is scaled to controls: 0 for no effect and ±100 for the full control effect
# Target sequence (O00167 whole entry, looked up): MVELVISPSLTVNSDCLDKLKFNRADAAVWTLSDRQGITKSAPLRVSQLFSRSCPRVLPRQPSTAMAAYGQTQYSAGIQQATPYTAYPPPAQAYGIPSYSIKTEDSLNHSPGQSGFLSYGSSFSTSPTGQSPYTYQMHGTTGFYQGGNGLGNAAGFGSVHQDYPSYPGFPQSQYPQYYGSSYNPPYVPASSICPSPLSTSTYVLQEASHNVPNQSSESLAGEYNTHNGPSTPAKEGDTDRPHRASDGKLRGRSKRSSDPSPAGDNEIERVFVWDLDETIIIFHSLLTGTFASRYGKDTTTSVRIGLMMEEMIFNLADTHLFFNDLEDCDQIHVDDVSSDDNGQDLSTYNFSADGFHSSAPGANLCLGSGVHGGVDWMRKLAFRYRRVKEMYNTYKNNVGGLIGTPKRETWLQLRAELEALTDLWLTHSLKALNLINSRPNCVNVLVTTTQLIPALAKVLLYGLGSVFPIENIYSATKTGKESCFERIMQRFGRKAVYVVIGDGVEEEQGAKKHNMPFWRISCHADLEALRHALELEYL
# Target sequence (Q15475 whole entry, looked up): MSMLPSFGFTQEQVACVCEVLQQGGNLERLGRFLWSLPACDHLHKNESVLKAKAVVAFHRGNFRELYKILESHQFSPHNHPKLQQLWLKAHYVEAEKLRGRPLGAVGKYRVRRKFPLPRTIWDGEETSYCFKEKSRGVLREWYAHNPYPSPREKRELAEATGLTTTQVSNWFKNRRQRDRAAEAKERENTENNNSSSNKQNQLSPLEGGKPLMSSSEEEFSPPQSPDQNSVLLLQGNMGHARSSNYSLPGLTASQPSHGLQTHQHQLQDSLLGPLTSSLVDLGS
#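 GST-Six1 + His-Eya2 (5X stock: 250/500 nM); Tris pH 8.0, 300 mM NaCl, 0.05% BSA, 0.02% Tween 20; GSH donor/Ni acceptor beads; 1 h 37 °C dark; AlphaScreen readout.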
# Starred values were filed as active, the others as inactive; u = inconclusive; x = not tested or not shown; & = joins results of further samples; [ ] = remark or other dose.
no.	smiles	TRPML1 blocker	PINK1 expr mod	Six1-Eya2 blk	D2 agonist	TRPML1 agonist	CtBP-E1A blk
1	CCOC(=O)[C@]12CCC=C1N(Cc1ccco1)C(=O)[C@H](CC(=O)N1CCC(c3ccccc3)CC1)C2	x	0.7%	-4.1	x	-0.5	-18.7
2	CCN(CC)S(=O)(=O)c1ccc(/C=C/C(=O)Nc2ccc(F)c(F)c2F)cc1	27.5	5.3%	-2.6	-1.9	0.8	-17.8
3	CCOC(=O)C(=O)Nc1ccc([N+](=O)[O-])cc1OC	-3.0	1.8%	1.2	-0.5	0.1	-1.3
4	CCN(C[C@H]1N[C@@](Cc2ccccc2)(C(=O)OC)[C@H]2C(=O)N(C)C(=O)[C@@H]12)S(=O)(=O)c1ccc(-c2ccccc2)cc1	21.2	1.8%	-4.3	0.7	-0.7	3.6
5	Cc1cccc(CCNc2nc3ccc(C)cc3n3cnnc23)c1	x	u	3.5	-2.9	x	1.0
6	CCN(CC(=O)NCc1ccc(F)cc1)C(=O)c1cccc(S(=O)(=O)N(C)c2ccc(OC)cc2)c1	-1.0	1.7%	0.3	3.6	-0.7	6.0
7	CC(=O)Nc1ccc(S(=O)(=O)N2CCC(c3nnc(-c4ccc(C)cc4)o3)CC2)cc1	-0.9&-14.1	4.1%&2.9%	-0.7	-3.5	-0.9&1.0	-7.6
8	CSCc1ccc(C(=O)Nc2ccc(C(N)=O)cc2)cc1	11.8	1.8%	-1.0	2.7	0.3	x
9	Cc1ccc(C(=O)NC(=S)NNC(=O)c2ccccc2O)cc1	4.8	-3.1%	-87.7*	-4.5	u	-2.4
10	Cn1c(SCc2cccc(Cl)c2)nc(C(F)(F)F)cc1=O	1.9	-2.4%[38.3 µM]	21.3	1.1	2.4	30.3
11	COc1ccc(/C=N/NC(N)=S)cc1	-8.3	4.9%	-2.1	-3.5	-0.1	4.3
12	O=c1ncn(-c2ccc(F)cc2)c2ncccc12	-3.2	0.1%	2.6	-2.5	-1.0	9.8
13	CCC(=O)Nc1ccc(N2CCN(Cc3ccccc3F)CC2)cc1	2.8	x	-2.6	-0.5	0.3	-5.6
14	CCOC(=O)CCN(C(=O)Nc1ccccc1)C1CCCCC1	-8.5	2.2%	0.2	-0.4	0.0	1.2
15	CC(C)OC(=O)c1ccc(NC(=S)NC(=O)c2cncc(Br)c2)cc1	-1.6	8.2%	14.4	-2.8	0.5	-14.7

no.	smiles	TRPML1 blocker	PINK1 expr mod	Six1-Eya2 blk	D2 agonist	TRPML1 agonist	CtBP-E1A blk
16	COc1cc(C(=O)NNC(=O)c2ccco2)cc(OC)c1OC	-23.5	2.3%	1.9	-3.5	1.1	-4.4
17	CCOC(=O)c1ccc[n+](CC(=O)c2ccc(OC)cc2)c1	-1.7	-1.0%	7.2	-3.0	2.2	-19.4
18	COc1ccccc1C1=CC(=O)C[C@H](c2ccc3c(c2)OCO3)C1	-21.5	2.8%	-13.3	1.1	1.6	-7.6
19	O=C(COc1ccc(Cl)cc1)OCC(=O)N1CCCc2ccccc21	39.0	-0.3%	-2.0	-4.9	1.4	-15.6
20	Cc1ccc(OCC(O)CNC(=O)c2ccccc2C(=O)O)cc1 (centres undefined)	-8.1	-0.3%	0.9	-4.2	0.7	1.9
21	CC(C)Cn1c(SCC(=O)Nc2cc(Cl)c(Cl)cc2Cl)nc(O)cc1=O	-13.0	0.2%	-4.5	-0.3	0.7	5.5
22	CN(C)CCCN(C(=O)CCc1ccccc1)c1nc2ccc(Cl)cc2s1	-7.6	-3.6%	-5.3	5.6	1.1	-15.6
23	COc1ccc(CCNC(=O)CN2C(=O)c3cccc4cccc(c34)C2=O)cc1OC	12.2	3.9%	1.0	-0.5	-1.1	x
24	O=S(=O)(Cc1ccc(Cl)cc1)N1CCCC1	-6.0	x	3.9	-1.5	-0.4	10.6
25	O=C(O)c1ccccc1C(=O)Nc1ccc(Oc2cccc(C(F)(F)F)c2)nc1	6.7	-0.2%	-2.4	0.7	0.2	-9.9
26	CCc1nn2c(=O)c(S(=O)(=O)Nc3ccc(Br)cc3F)c(C)nc2s1	8.5	0.4%	x	x	-0.1	x
27	Cc1ccc([C@@H]2[C@@H]3C(=O)N(C)C(=O)[C@@H]3[C@]3(Cc4ccccc4)C(=O)N(CCO)CC(=O)N23)o1	1.2	0.1%	-3.8	-7.0	-0.1	9.1
28	Cc1ccsc1/C=N/NC(=O)c1nnn(-c2nonc2N)c1C	-6.6	9.9%	-5.0	-2.1	-0.2	4.1
29	Cc1nc(NCCCn2ccnc2)c2oc3ccccc3c2n1	-7.3	1.0%	-13.7	-2.2	-0.7	-2.9
30	CCc1nnc(NC(=O)CN2CCC(O)(c3ccccc3OC)CC2)s1	5.7	0.1%[38.3 µM]	1.7	0.4	-0.5	6.1

no.	smiles	TRPML1 blocker	PINK1 expr mod	Six1-Eya2 blk	D2 agonist	TRPML1 agonist	CtBP-E1A blk
31	O=C(CSc1cccc2cccc(Cl)c12)NC1=NCCS1	11.2	2.5%	-6.5	4.1	2.9	-2.7
32	COCCCNCCOCCSc1ccc(Cl)cc1	-12.5	0.7%	15.7	-4.4	0.5	-3.2
33	CC1Cc2ccccc2N1C(=O)CSc1ccccc1 (centres undefined)	29.4	-4.4%[38.3 µM]	9.9	-0.5	1.0	17.5
34	O=c1nc2n(c3ccc([N+](=O)[O-])cc13)CCCCC2	11.9	-1.5%	19.2	-3.6	-0.1	-10.5
35	CCOC(=O)N1CCN(C(=O)c2ccc3c(c2)ncn3C2CCCC2)CC1	16.4	x	-0.9	0.2	-0.5	2.9
36	CCOC(=O)N1CCN(Cc2nc3cc(NC(C)=O)ccc3n2C)CC1	17.6	2.1%	-7.3	0.7	-0.1	-5.7
37	Cc1cc(C(=O)COC(=O)COc2ccc(C#N)cc2)c(C)n1C1CC1	14.0	0.1%	-12.9	5.0	1.5	-2.9
38	COc1ccc([C@@H]2CC(=O)c3c(O)cc(O)cc3O2)cc1O	-3.9	-0.2%	1.8	-5.5	-1.0	0.4
39	CCC(C)c1ccccc1N1CC(C(=O)N2CCN(c3ccccc3)CC2)CC1=O (centres undefined)	-3.7	4.0%	-5.7	-1.2	-0.2	16.8
40	O=S(=O)(c1ccccc1F)N1CCN(CC(O)c2ccccc2)CC1 (centres undefined)	-15.5	-0.5%	5.7	1.5	-0.5	0.7
41	O=C(NNC(=O)c1ccccc1F)c1cccs1	-5.5	0.7%	8.4	-3.1	0.0	6.6
42	CC(=O)N1c2c(cc(Br)cc2S(=O)(=O)Nc2ccccc2C)CC1C (centres undefined)	-1.0	1.4%	x	x	-0.8	x
43	COc1cc(C(=O)Nc2ccn(C)n2)ccc1OC(F)F	7.5	1.7%	-1.9	-3.2	0.6	x
44	CC1=CC(c2ccc(Cl)cc2)n2nc(N3C(=O)CCC3=O)nc2N1 (centres undefined)	-9.1	-1.7%	-5.9	-4.3	-0.7	-14.3
45	COc1cccc(NC(=O)CN(C)C(=O)C(C)Sc2ccccc2)c1 (centres undefined)	-3.0	-0.6%	2.6	-4.6	-1.2	2.7

# 12 entries from above, in transposed form:
[31] O=C(CSc1cccc2cccc(Cl)c12)NC1=NCCS1
[32] COCCCNCCOCCSc1ccc(Cl)cc1
[33] CC1Cc2ccccc2N1C(=O)CSc1ccccc1 (centres undefined)
[34] O=c1nc2n(c3ccc([N+](=O)[O-])cc13)CCCCC2
[35] CCOC(=O)N1CCN(C(=O)c2ccc3c(c2)ncn3C2CCCC2)CC1
[36] CCOC(=O)N1CCN(Cc2nc3cc(NC(C)=O)ccc3n2C)CC1
[37] Cc1cc(C(=O)COC(=O)COc2ccc(C#N)cc2)c(C)n1C1CC1
[38] COc1ccc([C@@H]2CC(=O)c3c(O)cc(O)cc3O2)cc1O
[39] CCC(C)c1ccccc1N1CC(C(=O)N2CCN(c3ccccc3)CC2)CC1=O (centres undefined)
[40] O=S(=O)(c1ccccc1F)N1CCN(CC(O)c2ccccc2)CC1 (centres undefined)

entry no. | 31 | 32 | 33 | 34 | 35 | 36 | 37 | 38 | 39 | 40
TRPML1 blocker | 11.2 | -12.5 | 29.4 | 11.9 | 16.4 | 17.6 | 14.0 | -3.9 | -3.7 | -15.5
PINK1 expr mod | 2.5% | 0.7% | -4.4%[38.3 µM] | -1.5% | x | 2.1% | 0.1% | -0.2% | 4.0% | -0.5%
Six1-Eya2 blk | -6.5 | 15.7 | 9.9 | 19.2 | -0.9 | -7.3 | -12.9 | 1.8 | -5.7 | 5.7
D2 agonist | 4.1 | -4.4 | -0.5 | -3.6 | 0.2 | 0.7 | 5.0 | -5.5 | -1.2 | 1.5
TRPML1 agonist | 2.9 | 0.5 | 1.0 | -0.1 | -0.5 | -0.1 | 1.5 | -1.0 | -0.2 | -0.5
CtBP-E1A blk | -2.7 | -3.2 | 17.5 | -10.5 | 2.9 | -5.7 | -2.9 | 0.4 | 16.8 | 0.7

[41] O=C(NNC(=O)c1ccccc1F)c1cccs1
[42] CC(=O)N1c2c(cc(Br)cc2S(=O)(=O)Nc2ccccc2C)CC1C (centres undefined)

entry no. | 41 | 42
TRPML1 blocker | -5.5 | -1.0
PINK1 expr mod | 0.7% | 1.4%
Six1-Eya2 blk | 8.4 | x
D2 agonist | -3.1 | x
TRPML1 agonist | 0.0 | -0.8
CtBP-E1A blk | 6.6 | x

# Further structures
no.	smiles	TRPML1 blocker	PINK1 expr mod	Six1-Eya2 blk	D2 agonist	TRPML1 agonist	CtBP-E1A blk
46	C#CCN(C[C@@H]1[C@@H](OC(=O)NCc2ccccc2)[C@@H](OC(=O)NCc2ccccc2)CN(C(=O)OC(C)C)N1C(=O)OC(C)C)S(=O)(=O)c1ccc(C)cc1	25.8	7.8%	-4.4	-10.7	2.2	-4.8
47	COc1cccc(CNC(=S)Nc2cc(OC)ccc2OC)c1	-2.5	0.2%	-9.9	-5.8	-1.0	-4.1
48	CCOC(=O)CN(C(=O)CSc1nnc2c(n1)[nH]c1ccccc12)c1ccccc1	19.9	8.7%	u	-0.8	6.1	u
49	CCN1CCN(CCCNC(=O)c2ccc(NC(=O)C3=CSCCO3)cc2)CC1	-7.0	1.4%	-21.9	2.2	0.5	x
50	CCN(CC)S(=O)(=O)c1cc(NC(=O)COC(=O)c2sc3ccccc3c2Cl)ccc1C	-7.3	-0.8%	4.6	-9.1	-0.7	6.5
51	NC(=O)N/N=C/c1cn(-c2ccccc2)nc1-c1cccs1	10.2	4.1%	-4.9	-3.8	2.2	1.3
52	Cc1sc2c(=O)n3c(nc2c1C(=O)NC1CCCCC1)CCCCC3	8.9	-1.0%	7.5	-1.4	1.7	0.0
53	c1nc2sc3c(c2c2nnnn12)CCCC3	-17.6	-2.3%[38.3 µM]	-1.2	1.2	1.7	-1.4
54	CCc1ccc(NC(=O)CCn2c(=O)c3cccn3c3ccccc32)cc1	-3.6&-1.4	3.0%&5.9%	-9.9	-3.3	0.8&3.6	-7.8
55	COc1ccc(-c2nnc3ccc(SCC(=O)Nc4cc(C)on4)nn23)cc1OC	-9.0	-0.6%	2.1	0.9	-0.2	6.6
